Source: PubChem BioAssay (National Center for Advancing Translational Sciences (NCATS))
HSD17B inhib: qHTS Assay for Inhibitors of HSD17B4, hydroxysteroid (17-beta) dehydrogenase 4; 3-hydroxyacyl-CoA dehydrogenase type-2 (Homo sapiens), Q99714; hit rate 7.6% among 75,000; recombinant HSD17B10, NADH fluorescence kinetic; many of its hits are not listed in these tables; AID 893, 2007; Potency, µM (series often up to 57.1 µM), without a hit: at the top dose activity change, negative = inhibition, most hits filed as inhibitors; active = well fitted inhibition curve with a large enough effect; inconclusive = small, poorly fitted or top-dose-only effect; inactive = no such curve, though single readings can be large or run the other way;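 also: the protocol describes HADH2 (HSD17B10) and not the HSD17B4 of the title; nearly all actives have a fitted effect of over 70% in size; most hits overshoot -100% by far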
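His-tagged E. coli-expressed HADH2 at 20 nM in 100 mM Tris-HCl pH 9.0 with 0.01 % Tween-20, preincubated 15 min with compound at room temperature. Reaction with 1 mM NAD+ and 90 uM beta-hydroxybutyryl coenzyme A; NADH fluorescence (360/450 nm) read kinetically over 4 min, last minus first point.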
An asterisk follows results filed as active; ? = inconclusive; [ ] = remark or other dose. % is scaled to controls: 0 for no effect and ±100 for the full control effect; potency is read from the fitted curve at half-maximal effect.

SMILES	HSD17B inhib
CC12CN3CC(C)(CN(C1)C3c1cc(Br)ccc1O)C2=O (stereo unspecified)	-1%
COc1ccc(OC)c(CNC(=O)CCNC(=O)Cn2ccc3ccccc3c2=O)c1	-21%
CN(C)P(=NC(=O)COc1ccc(Cl)cc1Cl)(N(C)C)N(C)C	12%
CCOC(=O)N1CCN(Cc2nc3c(c(=O)[nH]c(=O)n3C)n2CCCc2ccccc2)CC1	9%
Cc1ncn(C23CC4CC(CC(O)(C4)C2)C3)n1	12%
COc1ccc(-c2nc(N)c3ncn([C@H]4O[C@@H](CO)[C@@H](O)[C@@H]4O)c3n2)cc1	8%[11.4 µM]
CCC(c1nnnn1Cc1ccco1)N(CCc1ccccc1)Cc1cc2cccc(C)c2[nH]c1=O (stereo unspecified)	?
CC(Nc1cc(=O)n(C)c(=O)n1C)c1ccccc1 (stereo unspecified)	-3%
O=C1C=C(OCc2ccccc2)CN1	3%
CCC(=O)N1CCN(c2ccccc2NC(=O)Cc2ccccc2)CC1	10%
O=C(O)COc1ccc(S(=O)(=O)NCCc2ccccc2)cc1	-4%
COCCn1c(=O)c(C)nc2cnc(N3CCOCC3)nc21	?
COc1ccc(CCn2nnnc2C(CC(C)C)N2CCN(c3ncccn3)CC2)cc1OC (stereo unspecified)	4%
CC1(C)CC(=O)C(C(c2ccncc2)C2C(=O)CC(C)(C)CC2=O)C(=O)C1	6%
CCn1c(SCC(=O)Nc2nc3c(s2)CCCC3)nc2c1c(=O)n(C)c(=O)n2C	13%
CCc1c2c(nc3ccc(OC)cc13)COC2	32µM*
CCc1cc2c(=O)c(-c3nc4ccccc4n3C)c(C)oc2c(CN2CCOCC2)c1O	?
O=C(CCCN1C(=O)C2C3C=CC(C3)C2C1=O)N1CCN(c2ccccc2)CC1 (stereo unspecified)	-2%
CCCCNC(=O)Nc1c(C(=O)OCC)[nH]c2ccccc12	32µM*
CSc1ncccc1C(=O)OCC(=O)N(CC(C)C)C1CCS(=O)(=O)C1 (stereo unspecified)	5%
NCCCCCc1nnc(SCC(=O)c2ccc(Cl)cc2)o1	?
COc1cc(C(=O)Nc2ccc3c(c2)OCCO3)ccc1OC(C)C	-7%
O=C(NS(=O)(=O)c1ccccc1)c1ccccc1O	-5%
COc1ccc(CC(=O)N(Cc2cc3cc(OC)ccc3[nH]c2=O)C(C)C)cc1	32µM*
COc1ccc(CNc2nc(-c3c(C)noc3C)nc3ccccc23)c(OC)c1	9%

Remaining list, next part.
SMILES	HSD17B inhib
c1ccc(-c2noc(-c3ccc4c(c3)OCO4)n2)nc1	2%
CC(NC(=O)CSc1nc2ccccc2c(=O)n1CCCO)c1ccccc1 (stereo unspecified)	5%
CC(C)C(NC(=O)C1CCCCC1)C(=O)Nc1ccncc1 (stereo unspecified)	10%
COc1cc2c(C)c3c4c(cc(OC)c(OC)c4c2cc1OC)CCN3C	20µM*
O=C(Nc1ccccc1)c1cnc[nH]1	8%
Cn1c2ccccc2c2cnn(CC(=O)O)c(=O)c21	?
CCc1ccccc1NC(=O)c1cc(C2CC2)on1	-6%
COc1cc(-c2nc(-c3ccc(-c4ccccc4)nc3OC)no2)cc(OC)c1OC	-1%
CN1CCCC2(CCN(C(=O)c3cnccn3)CC2)C1	9%
CCCOc1ccccc1NC(=O)CC1Nc2ccccc2NC1=O (stereo unspecified)	?
CCC(=O)N1CCCc2cc(S(=O)(=O)N3CCCc4ccccc43)ccc21	-1%
CCCc1nnc(NC(=O)CNc2ccc(F)cc2)s1	7%
CCOc1ccc(N(CC(=O)NC2CCCCC2)S(=O)(=O)c2c(C)noc2C)cc1	0%
C[C@]12CC[C@H]3c4ccc(O)cc4CC[C@@H]3[C@H]1CC[C@@H]2OP(=O)(O)O	-7%[11.4 µM]
O=C(Nc1ccc(S(=O)(=O)N2CCOCC2)cc1)c1ccc(Br)o1	25µM*
Cc1cc(NC(=O)CCCC(=O)N(CC(=O)NCCc2ccccc2)Cc2ccc(F)cc2)no1	4%
COc1cccc(-c2nnn(CC(=O)NC3CCCC3)n2)c1OC	0%
CCCn1c(SCC(=O)Nc2ccc3c(c2)OCO3)nc2c1c(=O)n(C)c(=O)n2C	7%
C=CCSC1=C(C#N)C(c2cccc(OC)c2)CC(=O)N1 (stereo unspecified)	-1%
CCN(CC)CCCC(C)n1c(-c2ccccc2)nc2c(NCCO)nc(C)nc21 (stereo unspecified)	32µM*
COc1ccc(OC)c(Nc2cc(C)nc3nc(C)nn23)c1	0%
CCOC(=O)N1CCC(NC(=O)CSc2cc(=O)n(C)c3ccc(Cl)cc23)CC1	2%
Cc1cc(S(=O)(=O)NCc2cccnc2)ccc1-n1cnnn1	4%
Cc1cc(N2CCN(C(=O)c3ccco3)CC2)nc(-c2ccccc2)n1	-1%
C=CCOC(=O)C1C(=O)CC(C)(O)C(C(=O)OCC=C)C1c1ccc(OC)cc1 (stereo unspecified)	-1%

Looked up one by one from the list above (2):
SMILES	HSD17B inhib
CCCOc1ccccc1NC(=O)CC1Nc2ccccc2NC1=O (stereo unspecified)	?
COc1cc2c(C)c3c4c(cc(OC)c(OC)c4c2cc1OC)CCN3C	20µM*

(next part)
SMILES	HSD17B inhib
O=C(c1ccncc1)N1C2C=CC(C2)C1(C(F)(F)F)C(F)(F)F (stereo unspecified)	0%
COc1ccccc1C1C(C(N)=O)=C(C)Nc2nc(-c3ccc(Cl)cc3)nn21 (stereo unspecified)	7%
COc1ccc(C(=O)N2CCC3(CC2)CN(CC(C)C)C3)cc1	10%
Cc1onc(-c2ccccc2Cl)c1C(=O)NCc1cccnc1	14%
CCCCS(=O)(=O)Nc1ccc(C(=O)NCC2CCCO2)cc1 (stereo unspecified)	-6%
Cc1cc(N(CN2CCCC2=O)C(=O)c2ccc(F)cc2)no1	8%
C1CCN(c2nc3nonc3nc2N2CCCCC2)CC1	-7%
CCOC(=O)NC(=O)COC(=O)Cc1cc(OC)c(OC)c(OC)c1	14%
Cc1c(-c2ccco2)[n+](=O)c2c(n1[O-])CCCCC2	-7%
COC(=O)Nc1c(-c2ccccc2)nc2ccc(C)cn12	25µM*
C=Cc1c(C)c2cc3[nH]c(cc4nc(cc5nc(cc1[nH]2)C(C)=C5CCC(=O)O)C(CCC(=O)O)=C4C)c(C)c3C=C	?
O=C(C1CC1)N1CCc2cc(Br)cc(S(=O)(=O)NC3CCCCC3)c21	7%
CCCCn1c(CCC(=O)O)ccc1-c1cccs1	32µM*
Cc1occc1C(=O)n1cnc2ccccc21	-4%
CO[C@H]1COC(=O)C/C=C\[C@H](C)[C@@H](OC)COC(=O)[C@H](C)COC(=O)C/C=C\[C@@H]1C	1%[11.4 µM]
Cc1oc(-c2cccc(Cl)c2)nc1CN1CCCC(C(=O)NC(C)c2ccc3c(c2)OCCO3)C1 (stereo unspecified)	-6%
O=S1(=O)CCN2C(c3ccco3)=CSC2=N1	-1%
O=C(C1CCN(c2nnc(-n3cccc3)s2)CC1)N1CCN(Cc2ccc3c(c2)OCO3)CC1	-4%
COc1ccc(NC(=O)CCCn2c(=O)[nH]c3ccccc3c2=O)cc1	-12%
CN(CCc1ccccn1)C(=O)c1nn2c(C(F)(F)F)cc(-c3ccco3)nc2c1Cl	2%
CCOCCCNCc1ccc(OC)c(OC)c1	-3%
CCCCN1C(=O)C2C(C(=O)Nc3cccc(OC)c3)C3C=CC2(O3)C1C(=O)NC1CCCCC1C (stereo unspecified)	-1%
O=C(CCNS(=O)(=O)c1ccc(Br)s1)N1CCN(c2ccccc2)CC1	5%
CC(=O)N1CCN=C1SCc1ccc(Cl)cc1	6%
CN(C)CCOCCP(=O)(c1ccccc1)c1ccccc1	-3%

Continuation.
SMILES	HSD17B inhib
O=[N+]([O-])c1cc(C(F)(F)F)ccc1Cl	2%
Cn1c(=O)c2c(nc(NCCNC(=O)c3ccco3)n2Cc2ccccc2Cl)n(C)c1=O	13%
NC(=O)CSc1ccc(Br)cc1	4%
Cn1c(SCC(=O)c2cccs2)nnc1-c1ccco1	-1%
Cc1cc2c(c(=O)n1Cc1ccco1)C(c1cccnc1)C(C#N)=C(N)O2 (stereo unspecified)	-1%
CCC(OC(=O)c1ccco1)C(=O)NCc1ccco1 (stereo unspecified)	-7%
CSc1ccccc1NC(=O)CN(c1cccc(C)c1)S(C)(=O)=O	12%
COc1ccc2c(c1)c(=O)oc1c(C)c3occ(C)c3cc12	-3%
CC(C)(C)n1nnnc1C(c1cc2cc3c(cc2[nH]c1=O)OCCO3)N1CCSCC1 (stereo unspecified)	32µM*
COC(=O)Nc1cc(C)nc2ccccc12	1%
O=C(NCc1cccnc1)NC1(c2ccccc2)CC1	-3%
COc1ccc(-c2c(O)c3c(OC)c4c(cc3oc2=O)OC(C)(C)CC4)cc1	8%
COc1ccc(CNC(=O)[C@H](C)[C@H]2C[C@]2(C)[C@H](NC(=O)OCc2ccccc2)c2ccccc2)cc1OC	11%
Cc1cc(N(CN2CCCC2=O)C(=O)c2ccccc2)no1	11%
COc1ccccc1NC(=O)CCNC(=O)Cn1ccc2ccccc2c1=O	-5%
O=c1cc(CSc2ccccn2)c2ccccc2[nH]1	7%
CC1CCCN(CCC(=O)c2ccc(Br)cc2)C1 (stereo unspecified)	-25%
O=C(Nc1ccc(Cl)c(Cl)c1)N(Cc1cccnc1)Cc1ccco1	-4%
COc1ccc(NC(=O)C2CCCN(S(=O)(=O)c3cccc4cccnc34)C2)c(OC)c1 (stereo unspecified)	3%
Cn1c(SCc2cccc(C(F)(F)F)c2)nnc1-c1ccco1	-1%
COc1ccc(C(c2nnnn2Cc2ccc(F)cc2)N2CCN(c3ccc(OC)cc3)CC2)cc1 (stereo unspecified)	-15%
COc1ccc2cc(CCNC(=O)C3CC3)c(=O)[nH]c2c1	?
CC(C)C1=C[C@@]23CC[C@@H]4[C@](C)(CCC[C@@]4(C)C(=O)O)[C@@H]2C[C@@H]1[C@@H](C(=O)O)[C@@H]3C(=O)O	7%[11.4 µM]
Cc1cc(Cc2c(C)c(C)c(Cc3cc(C)cc(C(C)(C)C)c3O)c(C)c2C)c(O)c(C(C)(C)C)c1	1%[11.4 µM]
O=C(CSCCc1ccccn1)Nc1cccnc1	12%

Another view of part of the listing above.
structure: CCCCn1c(CCC(=O)O)ccc1-c1cccs1
  HSD17B inhib: 32µM*
structure: Cc1occc1C(=O)n1cnc2ccccc21
  HSD17B inhib: -4%
structure: CO[C@H]1COC(=O)C/C=C\[C@H](C)[C@@H](OC)COC(=O)[C@H](C)COC(=O)C/C=C\[C@@H]1C
  HSD17B inhib: 1%[11.4 µM]
structure: Cc1oc(-c2cccc(Cl)c2)nc1CN1CCCC(C(=O)NC(C)c2ccc3c(c2)OCCO3)C1 (stereo unspecified)
  HSD17B inhib: -6%

The main list resumes, starting 2 compounds before the break.
SMILES	HSD17B inhib
Cc1cc(Cc2c(C)c(C)c(Cc3cc(C)cc(C(C)(C)C)c3O)c(C)c2C)c(O)c(C(C)(C)C)c1	1%[11.4 µM]
O=C(CSCCc1ccccn1)Nc1cccnc1	12%
Cn1c(=O)c(-c2cccc(F)c2)nc2cncnc21	-18%
CC1(C)Oc2ccc(C(=O)NC3CCCC3)cc2N(CC(=O)N2CCOCC2)C1=O	-1%
C[N+]12CCC(CC1)[C@@H](OC(=O)C(O)(c1ccccc1)c1ccccc1)C2	1%[25.6 µM]
CCC1CCCCN1C(=O)CSc1nnc(-c2c[nH]c3ccccc23)o1 (stereo unspecified)	3%
O=C(OCC(=O)N1CCN(C(=O)c2ccco2)CC1)c1ccc(S(=O)(=O)N2CCCCC2)cc1	10%
CCOc1cc(C)c(Cl)cc1S(=O)(=O)NCc1ccco1	-2%
O=C(Nc1ccccc1N1CCCC1)c1ccc2c(c1)OCO2	-2%
CCOC(=O)C1=C(SCC(=O)Nc2ccccc2)NC(=O)C(C#N)C12CCCCC2 (stereo unspecified)	-1%
O=C(Oc1ccc(-c2nnco2)cc1)N1CCCCC1	5%
COc1cccc(-n2ccnc2SCC(=O)N2CCc3ccccc32)c1	-5%
COc1ccccc1-c1nc(NCCN2CCOCC2)c2ccccc2n1	-4%
CCOc1ccc(-c2nc(CSCC(=O)NCc3ccco3)c(C)o2)cc1	32µM*
CCOC(=O)Cc1csc(NC(=O)C2C3C=CC(C3)C2C(=O)O)n1 (stereo unspecified)	8%
CCOCCCNC(=O)CCCOc1ccccc1	1%
Cc1ccc(C2CC(C(F)(F)F)n3nc(C(=O)NCCN4CCOCC4)cc3N2)cc1 (stereo unspecified)	1%
CCN(CC)c1ccc(NC(=O)CN2CCN(CC(=O)Nc3ccccc3F)CC2)cc1	7%
O=C(Nc1ccc2c(c1)OCO2)c1ccncc1	-6%
CC(C)(C)NC(=O)C1CCCN(S(=O)(=O)c2cccc3cccnc23)C1 (stereo unspecified)	7%
CC1(C)CC(=O)C2=C(C1)OC1=C(C(=O)CC(C)(C)C1)C2c1ccc(O)cc1O	21%

Some values from above:
In HSD17B inhib, O=C(O)COc1ccc(S(=O)(=O)NCCc2ccccc2)cc1 shows -4%
In HSD17B inhib, O=C(NCc1cccnc1)NC1(c2ccccc2)CC1 shows -3%
In HSD17B inhib, CCN(CC)CCCC(C)n1c(-c2ccccc2)nc2c(NCCO)nc(C)nc21 (stereo unspecified) shows 32µM*
In HSD17B inhib, CCOc1ccc(N(CC(=O)NC2CCCCC2)S(=O)(=O)c2c(C)noc2C)cc1 shows 0%
In HSD17B inhib, Cn1c(SCC(=O)c2cccs2)nnc1-c1ccco1 shows -1%
In HSD17B inhib, CCOC(=O)NC(=O)COC(=O)Cc1cc(OC)c(OC)c(OC)c1 shows 14%

These rows are one share of the data. The share of hits here may be higher or lower than overall.
